H5N1 CPE – antiviral screen in MDCK cells, H5N1 avian flu; actives 0.07% (n = 96,000); inhibition, % at 50 µM; cytopathic effect, luminescence, 72 h; stronger effect = higher value; no value below 0 was filed and about half of the inactive calls have no number; reference of the scale not given here; in the data active means inhibition above about 25%
* hit, by the source's call; i = inactive; & = joins results of further samples.

SMILES | H5N1 CPE
COc1ccc(/C(O)=C2/C(=O)C(=O)N(CCN3CCOCC3)C2c2cccnc2)cc1OC (configuration not stated) | 0.5
c1ccc(-n2c(-c3ccncc3)nnc2-c2ccco2)cc1 | 0.9
c1ccc(Oc2cccc(OCCCCSc3ncccn3)c2)cc1 | i
COc1cc(C(C)=O)ccc1OCC(=O)c1cc(C)n(C2CC2)c1C | i
Cc1cc(NC(c2ccc(Cl)cc2)c2ccc3cccnc3c2O)no1 (configuration not stated) | i
CCOc1ccc2c(c1)-c1c(ssc1=S)C(C)(C)N2C | i
N#CCCN(CCC#N)c1nnc(-c2ccccc2)s1 | 0.5
C/C=C(\C)CN1CCc2cc(OC)c(OC)cc2C1 | 1.1
Cc1ccc(SCCC(=O)N(C)C)cc1 | 0.1
CCOc1cc(CNc2ncc(-c3ccc(OC)cc3)n2C)ccc1O | i
CCCCOC(=O)C1=C(C)Nc2ncnn2C1c1cccc(OC)c1 (configuration not stated) | 1.2
O=C(Nc1ccc(-n2cnnn2)cc1)C1CCC1 | i
O=C1CC(c2ccco2)CC(O)=C1C=Nc1cc(Cl)ccc1O (configuration not stated) | i
O=C(NC1CC1)c1ccc(CS(=O)(=O)c2c(Cl)cccc2Cl)o1 | 2.7
Cc1ccc(C)c(SCc2noc(C(=O)NCC3CCCO3)c2C(=O)O)c1 (configuration not stated) | 0.3
O=C(CSc1nnc(-c2c[nH]c3ccccc23)o1)N(Cc1ccccc1)c1ccc(F)cc1 | 11
COC(=O)C1=C(C)N(C)C(C)=C(C(=O)OC)C1c1ccc(C(=O)OC)cc1 | 0.2
N#Cc1c(SCc2ccccc2)sc(C(=O)c2ccccc2)c1N | 0.5
CCN(CC)S(=O)(=O)c1cccc(NC(=O)C(=O)c2c(-c3ccccc3)cc3ccccn23)c1 | i
COc1ccc2nc(NC(=O)CN(C)S(=O)(=O)c3cccs3)sc2c1 | i
CCOCCCNS(=O)(=O)c1ccc(NC(=O)N2c3ccccc3Sc3ccccc32)cc1 | i
NC(=O)[C@H](Cc1cc2ccccc2s1)NC(=O)[C@@H]1CC2(CC(c3cccc(NC(=O)[C@@H]4CCC(=O)N4)c3)=NO2)CN1C(=O)/C=C/c1c(F)cccc1Cl (some centres not stated) | i
O=C1NC(NS(=O)(=O)c2ccccc2)(C(F)(F)F)C(=O)N1Cc1cccnc1 (configuration not stated) | i
O=C1NC(=O)C(CCc2ccncc2)(Cc2ccc3c(c2)OCO3)C(=O)N1CCc1ccccc1 (configuration not stated) | 0.9
CCOC(=O)c1ccc(NC(=O)CS(=O)(=O)c2cn(CC)c3ccccc23)cc1 | i
Continuation:
SMILES | H5N1 CPE
COc1cc(/C=C/C(=O)O)cc(S(=O)(=O)NCCCO)c1OC | 1.5
Cc1cc(C(C)(C)C)ccc1OCCN(C)C | i
Cn1nc(-c2ccc(C(=O)Nc3cccc(Cl)c3)cc2)c2ccccc2c1=O | 1.0
CCCCNS(=O)(=O)c1ccc2nc(SCC(=O)c3ccc(C#N)cc3)[nH]c2c1 | 0.7
Cc1cccc(CC(=O)OCn2nnc3ccccc3c2=O)c1 | 0.3
CCNc1c2c3c(cccc3n(C)c1=O)C(=O)c1ccccc1-2 | 0.3
CCOCC(=O)Nc1nc2ccc(S(C)(=O)=O)cc2s1 | 2.1
CCCc1cc(N2CCCC(C(=O)NCc3ccc4c(c3)OCO4)C2)n2ncnc2n1 (configuration not stated) | 1.7
COc1ccccc1CNC(=O)CSc1nc(N)c(C#N)c(-c2cccs2)c1C#N | 0.4
CCN(CC)S(=O)(=O)c1ccc(F)c(C(=O)NCCC(C)C)c1 | 1.8
CN(C)C(=O)CCN1CCOCC1 | i
O=C(CSc1ncnc2c1nnn2-c1ccc(F)cc1)NCC1CCCO1 (configuration not stated) | 0.7
Cc1ccc(S(=O)(=O)Nc2nc(C)c(NC(=O)Nc3ccc(Cl)cc3Cl)s2)cc1 | i
O=C(CCNc1ccc(F)cc1)c1cccc([N+](=O)[O-])c1 | i
Cc1oc(=O)c(NC(=O)c2cccc(Cl)c2)cc1C(=O)c1ccccc1 | 2.8
O=C(CSc1ncnc2ccccc12)N1CCCC1 | 0.6
CCCCCc1c(C)nc(NCc2ccccc2)[nH]c1=O | 0.7
Cc1ccc(NC(=O)CSc2nnc(-c3cnccn3)n2Cc2ccco2)cc1C | i
O=C(O)c1ccc(S(=O)(=O)N2CCCCCC2)cc1 | 1.3
Cc1ccnc(NC2(C(F)(F)F)N=C(c3ccccc3)NC2=O)c1 (configuration not stated) | i
CC(=NCC1CCCO1)c1c(O)[nH]c(=O)[nH]c1=O (configuration not stated) | i
O=C1NC(=O)N(CCNc2ncc(C(F)(F)F)cc2Cl)C(=O)C1/C=N/OCc1c(F)cccc1Cl (configuration not stated) | 0.1
CCCC(=O)Nc1ccc(N2CCN(C(=O)c3cccs3)CC2)cc1 | i
CCCCOc1ccccc1NC(=O)CSc1nnnn1C(C)(C)C | 1.1
COc1ccc(C2C(C#N)=C(N)Oc3c2oc(CO)cc3=O)c(OC)c1OC (configuration not stated) | 1.4

Grouped by structure, those above with a COOH group.
SMILES | H5N1 CPE
Cc1ccc(C)c(SCc2noc(C(=O)NCC3CCCO3)c2C(=O)O)c1 (configuration not stated) | 0.3
COc1cc(/C=C/C(=O)O)cc(S(=O)(=O)NCCCO)c1OC | 1.5
O=C(O)c1ccc(S(=O)(=O)N2CCCCCC2)cc1 | 1.3

Other compounds
SMILES | H5N1 CPE
CCOC(=O)c1cnn(-c2cc(C)nc3c(-c4ccccc4)c(C)nn23)c1N | i
COc1ccc(C)cc1NS(=O)(=O)c1cn(C)c(=O)n(C)c1=O | 0.8
O=C(Nc1cc(Cl)ccc1N1CCCCC1)c1cccs1 | i
COc1ccc(-c2cc(C(F)(F)F)nc(SCc3cccc(C(=O)O)c3)n2)cc1 | i
CCOc1nc(NC(C)C)nc(NC(C)C)n1 | i
COC(=O)COc1ccc2c(=O)c(Oc3ccccc3)c(C)oc2c1 | i
O=C(CSc1ccccc1C(=O)O)NC1CCCCCCC1 | 0.2
C/C=C/c1ccc(OCCCN2C(=O)NC(C)(C)C2=O)c(OC)c1 | 0.5
COc1ccccc1NC(=O)Nc1c(C)n(C)n(-c2ccccc2)c1=O | i
COc1ccccc1CC(=O)Nc1ccc(O)cc1C(=O)O | 0.3
O=C(NCc1ccc2c(c1)OCO2)c1cccc(F)c1 | i
O=C(Cn1c(SCC(=O)N2CCCc3ccccc32)nc2ccccc21)N1CCCC1 | i
O=C(c1cc2c(ccc3ccccc32)oc1=O)N1CCCC1 | 0.9
COc1ccc(-c2csc(N(CCc3ccc(OC)c(OC)c3)C(=O)COc3ccccc3)n2)cc1 | i
CC(Oc1ccc(C(C)(C)C)cc1)c1ccnc2nc(/N=C/N(C)C)nn12 (configuration not stated) | i
Cc1c(NC(=O)Oc2ccccc2)sc(=S)n1C | 0.1
COc1cc2c(cc1OC)C1(Nc3c-2c(Cc2ccccc2)nn3-c2ccccc2)C(=O)Nc2ccccc21 (configuration not stated) | 5.5
Cc1ccc(/C=c2\s/c(=C(/C#N)C(=O)N3CCCC3)n(Cc3ccco3)c2=O)s1 | 0.8
CCCCc1nnc(NC(=O)CS(=O)(=O)Cc2ccccc2)s1 | 0.7
COC(=O)C(C(=O)OC)=C(/C=C/N(C)C)N(C)C | i
COc1ccc(NC(=O)c2nnn(Cc3ccc(SC)cc3)c2N)c(OC)c1 | i
O=C(O)CCc1nc(-c2ccccc2)no1 | 0.3
O=C(c1cc(S(=O)(=O)N2CCCCC2)ccc1F)N1CCCCC1 | 1.0
COc1ccc(CN(C(=O)c2oc3ccccc3c2C)C2CCS(=O)(=O)C2)cc1OC (configuration not stated) | 0.3
O=C1CSC(c2cn(-c3ccccc3)nc2-c2cc3ccccc3oc2=O)N1Cc1ccco1 (configuration not stated) | 4.8

Laid out differently: results already given.
canonical_smiles,H5N1 CPE
O=C(c1cc2c(ccc3ccccc32)oc1=O)N1CCCC1,0.9
COc1ccc(-c2csc(N(CCc3ccc(OC)c(OC)c3)C(=O)COc3ccccc3)n2)cc1,i
CC(Oc1ccc(C(C)(C)C)cc1)c1ccnc2nc(/N=C/N(C)C)nn12 (configuration not stated),i
Cc1c(NC(=O)Oc2ccccc2)sc(=S)n1C,0.1

The results go on:
SMILES | H5N1 CPE
Cc1cc(C)n2nc(S(=O)(=O)NC3CCCCC3)nc2n1 | 0.4
Cc1ccccc1N=C(NOCc1ccc(Cl)cc1Cl)c1nonc1N | i
O=C(CSCc1cccs1)N1CCCC1 | i
CC1(c2ccccc2)CC2CC(c3ccccc3)N1O2 (configuration not stated) | 0.3
Cn1cnc([N+](=O)[O-])c1Nc1ccc(O)cc1 | 0.3
O=C(CN1CCCC1)N/N=C/c1ccc(-c2cccc(Cl)c2)o1 | i
CS(=O)(=O)Nc1ccc(C(=O)Nc2ccc3c(c2)OCCO3)cc1 | 0.1
c1ccc(-c2ccc(-c3nc(-c4ccncc4)no3)cc2)cc1 | i
CCc1c(C)sc(NC(=O)c2cccs2)c1C(=O)OC(C)C | i
CC1CCN(C(=O)C2CCN(S(=O)(=O)c3cccnc3)CC2)CC1 | 0.2
CSCCC(NS(=O)(=O)c1ccc(Cl)cc1)C(=O)OCC(=O)N(C(C)C)C(C)C (configuration not stated) | i
NS(=O)(=O)c1ccc(CCNC(=O)[C@@H]2CCCN2S(=O)(=O)c2ccccc2F)cc1 | 0.3
O=C(Nc1nccs1)C1CCN(S(=O)(=O)c2cnc[nH]2)CC1 | i
CCOC(=O)c1c(-c2ccccc2)csc1NC(=O)c1cccc(N2C(=O)CCC2=O)c1 | i
COC(=O)[C@H](Cc1ccccc1)NC(=O)NCCC1=CCCCC1 | i
CC(=O)NC1=NC(=O)C(C)S1 (configuration not stated) | i
CCC(C)NS(=O)(=O)c1ccc(S(=O)(=O)N(CC(=O)Nc2ccccc2)CC2CCCO2)cc1 (configuration not stated) | i
COc1ccc(C2=NOC3(CC(=O)N(c4ccc(C)cc4)C3=O)C2)c(OC)c1 (configuration not stated) | i
CC1C2C(c3ccccc3)N(C)C(=O)N(C)C2N(C)C(=O)N1C (configuration not stated) | i
CCOC(=O)c1[nH]c(C)c(CCC(=O)O)c1C | 1.1&1.9
Cc1ccc(Cn2nnnc2CN2CCC(c3nc4ccc(Cl)cc4[nH]3)CC2)cc1 | i
O=C(O)CCC(=O)Nc1cccc(C(=O)Nc2cccc(Cl)c2)c1 | i
CCN(CC)c1ccc(NC(=O)c2cccc(F)c2)c(C)c1 | i
CC(=O)SCCC(=O)Nc1ccccc1 | 0.1
O=S(=O)(Nc1nc2ccc(S(=O)(=O)N3CCCC3)cc2s1)c1ccc(F)cc1 | 0.3

Given as comma-separated lines: 5 of the compounds above.
smiles,H5N1 CPE
CCc1c(C)sc(NC(=O)c2cccs2)c1C(=O)OC(C)C,i
CC1CCN(C(=O)C2CCN(S(=O)(=O)c3cccnc3)CC2)CC1,0.2
CSCCC(NS(=O)(=O)c1ccc(Cl)cc1)C(=O)OCC(=O)N(C(C)C)C(C)C (configuration not stated),i
NS(=O)(=O)c1ccc(CCNC(=O)[C@@H]2CCCN2S(=O)(=O)c2ccccc2F)cc1,0.3
O=C(Nc1nccs1)C1CCN(S(=O)(=O)c2cnc[nH]2)CC1,i

Carrying on.
SMILES | H5N1 CPE
CC(C)OCCCNC(=O)CNC(=O)c1cccs1 | 0.2
COC(=O)c1ccccc1NC(=O)CNc1cc(Cl)ccc1N1CCOCC1 | i
CCc1nnc(NC(=O)CSc2nnc(-c3cccnc3)n2CC)s1 | 0.3
CCOC(=O)Cn1nnnc1CN(Cc1ccccc1)Cc1cc2cc(CC)ccc2[nH]c1=O | 1.1
O=C(NCC1COc2ccccc2O1)c1ccco1 (configuration not stated) | i
COc1ccc(C(=O)Nc2nc3nc(-c4ccccc4)cc(=O)n3[nH]2)cc1 | i
CCOC(=O)c1[nH]c(COC(=O)c2ccccc2NC(=O)c2ccco2)c(C(=O)OCC)c1C | i
CCCCCC(=O)Nc1ccc(N2CCN(C(=O)CCC)CC2)cc1 | i
Cc1nc(-c2ccccn2)sc1C(=O)Nc1ccc(F)cc1F | i
Cc1ccc2[nH]c(=O)c(CN(Cc3ccccc3Cl)C(=O)N3CCOCC3)cc2c1 | 0.1
CCn1c(-c2ccccc2)ccc(C#N)c1=O | 0.4
CCOC(=O)C(=Cc1ccc(F)cc1)C(=O)OCC | i
C=CCn1cc(C(=O)OC)c(=O)c2cc(S(=O)(=O)N(CC)CC)ccc21 | i
Cc1noc(C)c1CN1C(=O)NC2(CCc3ccccc3C2)C1=O (configuration not stated) | i
O=C(NCc1ccc(N2CCCC2=O)cc1)Nc1ccccc1 | i
Oc1oc(-c2ccccc2)nc1C=NCc1ccncc1 | 2.0
O=C(C1CCCN(S(=O)(=O)c2cccc3nonc23)C1)N1CCN(c2ccccc2)CC1 (configuration not stated) | i
O=C(c1ccc(N2CCOCC2)nc1)N1CCCCC1 | 3.4
CN(CC(=O)NCc1ccc2c(c1)OCO2)S(=O)(=O)c1ccc(Br)s1 | i
CC1CCCC(C)N1C(=O)CN1C(=O)C(C)(C)Oc2ccc(C(=O)NC3CCCC3)cc21 (configuration not stated) | 0.4
O=C(Nc1ccccc1)OCc1cc(-c2ccc(Cl)cc2)on1 | 4.0
O=C(O)CCCNC1=NCCC1 | 1.1
CCn1ncc(C2=NOC(C(=O)NCCc3ccccc3)C2)c1C (configuration not stated) | i
CC1=CN2CC(O)CN=C2C=C1 (configuration not stated) | i
COc1cccc(Nc2nnc(SCC(=O)N(CC(C)C)CC(C)C)s2)c1 | 1.9

Among those listed so far, 2 have a nitro group on carbon.
SMILES | H5N1 CPE
O=C(CCNc1ccc(F)cc1)c1cccc([N+](=O)[O-])c1 | i
Cn1cnc([N+](=O)[O-])c1Nc1ccc(O)cc1 | 0.3

Other structures:
SMILES | H5N1 CPE
COC(=O)CNC(=O)CSc1nnc(-c2ccc(OC)cc2)n1CC(C)C | 0.7
N#CC1=C(N)Oc2n[nH]c(-c3ccccc3)c2C1c1ccncc1 (configuration not stated) | i
COc1ccc(NC(=O)C=C(C)C)cc1Cl | i
COc1cc(OC)c(C2=NOC(C(=O)N3CCc4ccccc4C3)C2)cc1Cl (configuration not stated) | 0.3
COCCn1c(C)cc(C(=O)CSc2nc(C)cc(C)c2C#N)c1C | 0.1
CC(C)=CC(=O)Nc1nnc(-c2cccnc2)s1 | 0.5
COc1ccc(OC)c(-n2c(C)nc3cc(C(=O)O)ccc32)c1 | 0.6

Screens as filed in PubChem BioAssay.

Some of the compounds tested; rates above refer to the full screens.
